AmpC inh no det: inhibitors of E. coli AmpC beta-lactamase without detergent | P00811 | 71,000 compounds, 1.8% hits | Potency, µM (titrated, usually from 28.7 µM), for the others: at the highest dose activity change, negative = inhibition | AmpC nitrocefin hydrolysis, absorbance 480 nm, no detergent; potencies from a single point are estimates; active = falling curve, for most hits resting on a single point; inconclusive = weak or doubtful change; inactive = flat or rising curve; further: % of control where 0% means no effect; about half of the hits show no inhibition at the top dose; a quarter of the inactives give rising signals
Target sequence (P00811 whole entry, looked up): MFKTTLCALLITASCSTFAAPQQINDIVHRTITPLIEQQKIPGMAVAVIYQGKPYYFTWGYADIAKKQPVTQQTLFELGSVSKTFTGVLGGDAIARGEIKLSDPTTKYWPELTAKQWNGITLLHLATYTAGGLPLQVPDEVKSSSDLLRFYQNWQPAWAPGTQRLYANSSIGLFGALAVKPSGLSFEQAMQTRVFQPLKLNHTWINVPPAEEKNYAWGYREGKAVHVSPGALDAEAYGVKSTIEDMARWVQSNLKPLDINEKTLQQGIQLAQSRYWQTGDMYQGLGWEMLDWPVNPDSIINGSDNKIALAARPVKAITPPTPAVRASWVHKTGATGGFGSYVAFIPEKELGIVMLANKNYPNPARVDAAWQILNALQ
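AmpC in 20 mM phosphate buffer pH 7.0 was preincubated 15 min at room temperature with compounds. Nitrocefin (800 uM stock) was then added and hydrolysis followed at 480 nm every 20 s for 4 min.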
Numbers without * were called inactive; ? = inconclusive; & = joins results of further samples; [ ] = remark or other dose. Potency means the concentration at half of the fitted maximal effect. These rows are one share of the data (hit frequency here may not be typical).

The first 2 compounds, ahead of the listing:
SMILES	AmpC inh no det
COc1cc(C2NC(=O)NC(c3ccccc3)=C2C(C)=O)ccc1OCC#N (stereo unspecified)	9%
Cc1cc(=O)oc(C)c1C(=O)O	6%

The list itself, previewed entries included:
SMILES	AmpC inh no det
COc1cc(C2NC(=O)NC(c3ccccc3)=C2C(C)=O)ccc1OCC#N (stereo unspecified)	9%
Cc1cc(=O)oc(C)c1C(=O)O	6%
Cc1cc(NCCCn2ccnc2)n2ncc(-c3ccccc3)c2n1	95%
Cc1cccc(NC(=O)c2cc(NC(=O)C3CCCCC3C(=O)O)ccc2Cl)n1 (stereo unspecified)	-7%
O=C(C1CCCCC1)N(Cc1ccccc1)c1ccccn1	13%
CCOC(=O)C(C(C)=O)C(c1ccc(OC)cc1)C(C(C)=O)C(=O)OCC (stereo unspecified)	19%
COc1ccc(C(=O)Cn2c(N3CCOCC3)nc3ccccc32)cc1OC	4%
Nc1nonc1C(=O)NCCNC(=O)c1cccs1	2%
COc1cc2c(c(OC)c1OC)-c1ccc(OC)c(=O)cc1[C@@H](NC(C)=O)CC2	-3%&7%&23%
O=C(CCCSc1nc(-c2ccco2)cc(C(F)(F)F)n1)Nc1ccc2c(c1)OCO2	7%
CCOC(=O)N1CCC(NC(=O)Cn2nc(-c3ccccc3)ccc2=O)CC1	112%
CN(Cc1ccccc1)c1oc(COc2ccccc2F)nc1C#N	6%
Cc1ccccc1OCC1CO1 (stereo unspecified)	-8%
CC(C)CC(=O)NCC(C)NC(=O)CC(C)C (stereo unspecified)	4%
Cc1cc(C)c2c(n1)nn1c(N3CCOCC3)cc(C)nc21	41%
CCNc1ncc2nc(-c3ccc(F)cc3)c(=O)n(-c3ccc(OC)cc3)c2n1	4%
Cc1ccccc1OCc1nnc2c3cnn(C)c3ncn12	27%
Cc1ccc(CNS(=O)(=O)c2ccc3oc(C(=O)O)c(C)c3c2)cc1	-14%
O=C(c1ccc(Nc2cccc(C(F)(F)F)c2)nc1)N1CCCC1	73%
C=CCSc1nnc(NC(=O)c2cccc(S(=O)(=O)N3CCOCC3)c2)s1	0%

Pulled one by one from above, 3 records:
SMILES	AmpC inh no det
Cc1ccccc1OCC1CO1 (stereo unspecified)	-8%
Cc1cccc(NC(=O)c2cc(NC(=O)C3CCCCC3C(=O)O)ccc2Cl)n1 (stereo unspecified)	-7%
Cc1cc(NCCCn2ccnc2)n2ncc(-c3ccccc3)c2n1	95%

Next section.
SMILES	AmpC inh no det
CC(=O)c1c(C)[nH]c(C)c1C(C)=O	13%
COc1cccc(-n2cc3c(c2-c2ccccc2)c(=O)n(C)c(=O)n3C)c1	84%
N#CC(=C(/N)Sc1ccccc1N)/C(C#N)=C(/N)Sc1ccccc1N	?
O=C(c1ccco1)N1CCN(CC(=O)N2c3ccccc3CCc3ccccc32)CC1	87%
Cc1ccc2ccccc2c1CSc1nc(N)nc2c1ncn2CC(C)C	20%[5.75 µM]
Brc1cc(Oc2cc(Br)c(Br)c(Br)c2Br)c(Br)c(Br)c1Br	?
CCn1c(C(=O)NC(C)c2ccc3c(c2)OCCO3)cc2sccc21 (stereo unspecified)	15%
Cc1noc(C)c1CSc1ccc2ccccc2n1	2%
CCCOC(=O)NC1C(NC(=O)OCCC)N(C)C(=O)N1C (stereo unspecified)	14%
COc1ccc2c(c1)c(C(=O)CNc1nc(C)cs1)c(C)n2C	25%
CCC(C(=O)N1CCN(S(C)(=O)=O)CC1)c1ccccc1 (stereo unspecified)	14%
C/C(=C(/CCO)SSC[C@@H]1CCCO1)N(C=O)Cc1cnc(C)nc1N	-9%[12.8 µM]
CCc1nnc(NC(=O)CCC(=O)NC2CCCCC2)s1	8%
CCCCCC(=O)Nc1ccc(N2CCN(S(C)(=O)=O)CC2)cc1	8%
Cc1nc(S(=O)(=O)N(C)Cc2ccccc2)c(C#N)c(C)c1Cl	5%
O=C(NCCN1CCOCC1)c1ccc2c(c1)N(Cc1ccccc1)CCS2	149%
Cn1c(=O)c2c(-c3ccncc3)c3c(nc2n(C)c1=O)-c1ccccc1C3=O	0%
Cc1cccc(OCC(=O)Nc2ccccc2N2CCN(C(=O)C(C)C)CC2)c1C	28%
CCN(CC)c1ccc(NC(=O)c2cccc(OC)c2)c(C)c1	-3%
COCCn1c(=N)c(C(=O)NCCc2ccc(OC)cc2)cc2c(=O)n3cccc(C)c3nc21	76%
CCOC(=O)C1CCCN(C(=O)c2cc(=O)c3ccccc3o2)C1 (stereo unspecified)	10%
Cc1c2cccn2cc[n+]1C	-3%
Cc1cc(C)n2cc(CSc3nnnn3-c3ccc(Cl)cc3)nc2n1	18%
CN(C(=O)Cn1c(=O)n(CCCCC(=O)NC2CCCC2)c(=O)c2ccccc21)C1CCCCC1	44%
C=C(C)CN1CC[C@@]23c4c5ccc(O)c4O[C@H]2c2[nH]c4ccccc4c2C[C@]3(O)[C@@H]1C5	52%
CC(=O)CSc1nnc(CSc2ncccn2)n1C1CCCCC1	30%
Cc1cccc(N(C)S(=O)(=O)c2ccc3[nH]cc(C(=O)N4CCOCC4)c(=O)c3c2)c1	10%
COc1ccc2[nH]c(=O)c(CN(Cc3ccc4c(c3)OCO4)C(C)=O)cc2c1	8%
C/C(=N\O)C(=O)NCCN1CCCCC1	-3%
CC1Cc2ccccc2N1C(=O)COc1nc2ccccc2nc1N1CCOCC1 (stereo unspecified)	113%
COc1ccc(-c2csc(C3=C(O)CN(Cc4ccc(S(N)(=O)=O)cc4)C3=N)n2)cc1OC	-12%
CCOC(=O)N1CCN(C(=O)c2cn(CCOC)c(=O)c3c2c2ccccc2n3C)CC1	100%
Cc1ccc(C(=O)CC(C(=O)O)c2cn(CCC#N)c3ccccc23)cc1 (stereo unspecified)	5%
CCOC(=O)C1CCN(C(=O)C2c3ccccc3C(=O)N(C)C2c2ccc(OC)cc2)CC1 (stereo unspecified)	59%
O=C(NCC1CCCO1)c1nnc(Cc2ccc(F)cc2)o1 (stereo unspecified)	9%
O=C(CN1C(=O)C2C3C=CC(C3)C2C1=O)NC1CCCc2ccccc21 (stereo unspecified)	0%
CC(C)Cn1cc(C(=O)N2CCC3(CC2)OCCO3)c2c3ccccc3n(C)c2c1=O	82%
O=C(O)CCSCc1ccc(I)cc1	2%[5.75 µM]
COc1ccc2nc(NC(=O)c3ccc(-n4nc(C)cc4C)cc3)sc2c1	80%
Cn1cc(-c2nc3cnc(N4CCNCC4)nc3n(CCC#N)c2=O)c2ccccc21	92%

Laid out differently: entries from further up.
Molecule: O=C(NCC1CCCO1)c1nnc(Cc2ccc(F)cc2)o1 (stereo unspecified)
- AmpC inh no det = 9%

Molecule: CCOC(=O)C1CCN(C(=O)C2c3ccccc3C(=O)N(C)C2c2ccc(OC)cc2)CC1 (stereo unspecified)
- AmpC inh no det = 59%

Molecule: COc1ccc2nc(NC(=O)c3ccc(-n4nc(C)cc4C)cc3)sc2c1
- AmpC inh no det = 80%

Molecule: CCOC(=O)C1CCCN(C(=O)c2cc(=O)c3ccccc3o2)C1 (stereo unspecified)
- AmpC inh no det = 10%

Look-ups from the results shown:
For AmpC inh no det, Cc1cccc(N(C)S(=O)(=O)c2ccc3[nH]cc(C(=O)N4CCOCC4)c(=O)c3c2)c1 is listed with 10%
For AmpC inh no det, COc1ccc2[nH]c(=O)c(CN(Cc3ccc4c(c3)OCO4)C(C)=O)cc2c1 is listed with 8%
For AmpC inh no det, Cc1cc(C)n2cc(CSc3nnnn3-c3ccc(Cl)cc3)nc2n1 is listed with 18%
For AmpC inh no det, Cc1cccc(OCC(=O)Nc2ccccc2N2CCN(C(=O)C(C)C)CC2)c1C is listed with 28%

Carrying on:
SMILES	AmpC inh no det
CO[C@@H]1/C=C\O[C@]2(C)Oc3c(C)c(O)c4c(O)c(c(CN5CCN(C)CC5)c(O)c4c3C2=O)NC(=O)/C(C)=C\C=C[C@@H](C)[C@@H](O)[C@H](C)[C@@H](O)[C@H](C)[C@H](OC(C)=O)[C@@H]1C	84%[5.75 µM]
O=C(NCCCNC(=O)c1cccs1)c1cccs1	0%
Cc1nnc(SCCn2c(N3CCCCC3)nc3c2c(=O)[nH]c(=O)n3C)s1	1%
O=C(NCc1ccc2c(c1)OCO2)c1nnc(Cc2ccc(Cl)cc2)o1	4%
NCCC[C@@H](CC(=O)N[C@@H]1CCNC[C@H]1C(=O)N[C@H](CC(=O)N[C@@H](CCC(=O)O)CC(=O)O)Cc1ccccc1)NC(=O)C[C@H](CO)NC(=O)[C@@H]1CNCC[C@H]1N	57%
CC(=O)N1CCc2cc(NS(=O)(=O)c3cccs3)ccc21	-8%
CCOc1ncccc1C(=O)OCc1cc(=O)oc2c(C)c(C)ccc12	43%
CN(Cc1ccc(-n2cccn2)cc1)C(=O)c1cnn2c1NC(c1ccco1)CC2C(F)(F)F (stereo unspecified)	72%
CC1(C)CC(=O)C2=C(C1)Nc1ccccc1NC2c1ccccn1 (stereo unspecified)	-11%
CC(C)OC(=O)C(NC(=O)c1ccccc1)=C1CCCCC1	-5%
CCOC(=O)C1CCCN(C(=O)c2cc3ncc(Br)cn3n2)C1 (stereo unspecified)	12%
CCCC1(C(=O)OCC)NC(c2ccc(N(C)C)cc2)C2C(=O)N(c3ccc(F)cc3)C(=O)C21 (stereo unspecified)	72%
[O-][N+]1=C2CCC/C(=N\O)C2=NC12CCCCC2	-2%
NC(=O)c1cccc2c3c([nH]c12)CCCC3	-5%
CCCS(=O)(=O)N1CCC(C(=O)NCCc2ccccc2)CC1	-12%
O=C(NCCN1CCN(c2ccccc2)CC1)C1CCN(S(=O)(=O)c2cccs2)CC1	78%
CCOC(=O)c1c(C)[nH]c(C(=O)COC(=O)C2CC2C)c1C (stereo unspecified)	12%
Cc1ccnc(SCCn2c(N3CCOCC3)nc3c2c(=O)[nH]c(=O)n3C)n1	-6%
O=C(Nc1ccc(N2CCOCC2)cc1)Nc1cnsn1	-12%
Cc1noc(C)c1-c1cc(NCc2ccccc2)ncn1	19%
COc1ccccc1C(=O)OCC(=O)Nc1ccc(OC(F)F)cc1	9%
O=C(CSc1nnc(Cc2cccs2)n1-c1ccccc1)Nc1ccc2c(c1)OCCO2	7%
COCc1cc(C)c(C#N)c(=S)[nH]1	-5%
CCOC(=O)CSc1nnc(-c2nnc(SCC(=O)OCC)n2CC)n1CC	25%
COC(=O)c1[nH]cnc1C(=O)c1ccccc1	-6%
N[C@@H](C(=O)O)c1cc(O)ccc1Cl	-13%
CCOC(=O)C1CCN(C(=O)Nc2ccc(NC(=O)C3CCN(C(=O)OCC)CC3)cc2)CC1	11%
O=C(Nc1ccn(C2CC(OC(=O)c3ccccc3)C(CO)O2)c(=O)n1)c1ccccc1 (stereo unspecified)	-6%
N#CC1=C(N)N(c2ccccc2C#N)C2=C(C(=O)CCC2)C1c1ccsc1 (stereo unspecified)	7%
O=C(Cn1cnc2c(nnn2-c2ccc(F)cc2)c1=O)N1CCCC1	-12%
COc1ccc(C2CC(c3ccccc3)n3nc(NC(=O)c4cccs4)nc3N2)cc1 (stereo unspecified)	-4%
CCN(CC)S(=O)(=O)c1cccc(C(=O)NC(C(=O)Nc2nnc(C3CC3)s2)C(C)C)c1 (stereo unspecified)	69%
Cn1cccc1C(=O)N1CCC2(CC1)CN(c1ccccn1)C2	36%
COc1cc(NC(=O)Cn2ncc3c2-c2ccccc2OC3)cc(OC)c1OC	99%
O=C(CC1N=C2c3ccccc3N=C(SCc3ccc(Cl)cc3)N2C1=O)NCc1ccco1 (stereo unspecified)	84%
C=C(C)CSc1nnc(-c2cccc(S(=O)(=O)N(C)C)c2)n1-c1cc(OC)ccc1OC	144%
CN1CCN(S(=O)(=O)c2ccc(-c3noc(C4CCN(S(C)(=O)=O)CC4)n3)cc2)CC1	47%
O=c1oc2ccc3ccccc3c2cc1-c1nnc(-c2ccccc2)o1	1%
CCOc1ccc(N(CC(=O)Nc2cccc(F)c2)S(=O)(=O)c2c(C)noc2C)cc1	-18%
CC(Oc1ccc(Cl)cc1Cl)C(=O)Nc1ccc2oc(-c3ccncc3)nc2c1 (stereo unspecified)	104%
N#C/C(=C1\CCCN1)c1nc2ccccc2c(=O)[nH]1	-1%
COCCn1c(=NC(=O)c2ccc3c(c2)OCO3)c(C#N)cc2c(=O)n3cccc(C)c3nc21	67%
O=C(Nc1nnc(C(F)(F)F)s1)c1cccnc1	0%
CC(=O)NCCN=C(C)c1sc2ccccc2c1O	6%
CCOC(=O)C1CCN(Cc2ccc(C(=O)OC)cc2)CC1	9%
COc1ccc(-c2c(C)n([O-])c(C)c(C)[n+]2=O)cc1OC	-4%
CCOc1cc(C)nc(N2CCCC(C(=O)NCc3ccccc3F)C2)n1 (stereo unspecified)	45%
CCOC(=O)CCCCNCc1ccccc1	-12%
CCOC(=O)C(NC(C)=O)(Nc1cccc(F)c1)C(F)(F)F (stereo unspecified)	4%
Cn1cccc1Cc1nnc(SCC(=O)NCc2ccc3c(c2)OCO3)n1CCc1ccccc1	104%
C=CCn1c(-c2ccc(Cl)cc2)c[nH]c1=S	5%
NCCCCCC(=O)O	1%[12.8 µM]
Nc1nc(NCc2ccco2)nn1-c1ccccc1	-2%
O=C(O)CCN(CCC(=O)O)c1ccccc1	-7%
Cc1ccc(C(=O)N2CCN(S(C)(=O)=O)C2)cc1	-6%
COc1ccc(-c2ccc(-c3noc(-c4ccccc4C)n3)c(OC)n2)cc1	-2%
Cc1ccc(CCNC(=O)CCNS(=O)(=O)c2ccc3c(c2)c(=O)n(C)c(=O)n3C)cc1	39%
